# Compound activity (PubChem)
# Bead autofluor – compound fluorescence in toxin protease inhibitor counterscreen | compound autofluorescence counterscreen, microsphere flow cytometry; stronger effect = higher value | fluorescence intensity (concentration not given with the values) | 360,000 compounds, 3.1% hits | AID 624483;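 active = at least 3 SD above the mean of all compounds, about 16000 in these data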;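 also: 100 nL of 1 mM stock went into each well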
# BJeLR lethal – kills HRASV12-expressing BJeLR cells | BJeLR (HRASV12) viability, CellTiter-Glo ATP luminescence, 48 h; reference of the scale not given here | inhibition, % (concentration not given with the values) | 300,000 compounds, 0.17% hits;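 active = replicate mean above 50%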;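 also: 50 nL library stock added to about 25 µL; numbers are from one replicate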
# Sa RN4220 lethal – S. aureus RN4220 growth inhibition; OD600, 16 h; inhibition, % (no concentration beside the values); 330,000 compounds, 0.33% hits;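 active = z-score of -3 or lower and OD600 up to 0.18 on both plates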;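 also: plate controls were untreated cells for no effect and reference antibiotic for full effect; stock transfer was 100 nL into about 80 µL; one replicate is shown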
# PrP 5UTR inh – suppresses PrP 5' UTR mRNA reporter expression; AID 488862; inhibition, % (test concentration not listed); 340,000 compounds, 0.35% hits; cell-based PrP 5' UTR mRNA reporter, plate reader;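 active = every replicate at 50% or more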;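 also: 0 = median of the neutral control wells; tested in H4 reporter cells; numbers are from one replicate; inactives centre near -14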
# Mtb hypoxia rep – inhibitors of hypoxia-regulated fluorescent reporter in Mycobacterium tuberculosis. M. tuberculosis hypoxia-regulated fluorescent reporter, fluorescence. fluorescence inhibition, % (no concentration beside the values). 300,000 compounds, 0.1% hits. AID 1159583;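 active = 35 to 45% if threefold the growth effect, above 45% if 1.5-fold the growth effect; inactive = the rest, general growth blockers included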;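 also: wells of about 50 µL received 100 nL stock; 0% = vehicle wells and 100% = reference inhibitor wells; whole bacteria with a GFP reporter of the hypoxia response; strong numbers were not always called active; many hits fall short of the cut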
# ugtP null kill – kills S. aureus RN4220 lacking UgtP | S. aureus RN4220 ugtP deletion, OD600 growth, 16 h; some inactives read as strong as hits | growth inhibition, % (concentration not given with the values) | 330,000 compounds, 0.54% hits | AID 1259309;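 active = z-score under -3 and OD600 up to 0.15 on both plates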;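 also: plate controls were untreated wells for no effect and antibiotic for full effect; wells of about 80 µL received 100 nL stock; the first replicate is given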
# Mtb hypoxia rep growth – recorded beside Mtb hypoxia rep, whose call it bears; growth inhibition, %; measured here: M. tuberculosis growth (absorbance);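 0% = vehicle and 100% = reference antibiotic; read after six days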
# * = called active by the depositor; · = not tested or not shown.
No.	SMILES	Bead autofluor	BJeLR lethal	Sa RN4220 lethal	PrP 5UTR inh
1	CCn1c(CNC(=O)c2cccc(C)c2)nnc1SCC(=O)NC1CCCC1	2809	-6	4.6	-9
2	CCc1ccc2c(c1)c1nnc(NN)nc1n2C	2676	-8	·	-3
3	COc1ccccc1NC(=O)C(C)OC(=O)Cc1n[nH]c(=O)c2ccccc12 (centres undefined)	4439	0	1.3	-11
4	CC(C)CC(=O)NC(=S)Nc1ccc(S(=O)(=O)Nc2nccs2)cc1	2528	-6	1.8	-14
5	O=C(COC(=O)C1CC1)Nc1ccc2c(c1)OCO2	4272	3	-1.0	-34
6	CCOC(=O)C1(Cc2cccc(Cl)c2)CCCN(C(=O)c2cccc(C)n2)C1 (centres undefined)	4213	6	0.5	-15
7	COC(=O)[C@]1(Cc2ccccc2)N[C@H](CN(C)C(=O)Nc2ccc(OC)cc2)[C@@H]2C(=O)N(C)C(=O)[C@@H]21	3628	·	-1.6	-12
8	O=C(Nc1cccnc1Cl)c1cc(-c2ccc(O)cc2)on1	5393	-5	-0.5	-50
9	NC(=NCCc1ccccc1)NS(=O)(=O)c1ccccc1	2666	-14	4.9	-6
10	CCC(=O)c1ccc(OCC(O)CN2CCOCC2)cc1 (centres undefined)	4571	-8	2.3	-26
11	COC(=O)c1ccccc1NC(=O)CSc1nnc(-c2cccnc2)o1	5571	1	-0.6	-5
12	CN(C)CCCN(C(=O)c1ccc(C(=O)c2ccccc2)cc1)c1nc2cc3c(cc2s1)OCCO3	5860	4	-4.9	-16
13	COC(=O)c1ccc(NS(=O)(=O)c2cc3c4c(c2)CCN4C(=O)CC3)cc1	6096	13	17	-25
14	CCN(CC)S(=O)(=O)c1ccc(Cl)c(NC(=O)COC(=O)c2c(C)noc2C)c1	2020	10	1.0	0
15	O=C(O)CC1c2ccccc2CCN1S(=O)(=O)c1cccs1 (centres undefined)	4295	3	6.6	·

No.	Mtb hypoxia rep	Mtb hypoxia rep growth	ugtP null kill
1	-2	-4	14
2	·	·	·
3	-7	-4	-1
4	10	26	92*
5	8	22	7
6	13	5	9
7	0	4	-1
8	2	10	-2
9	10	6	3
10	·	·	7
11	-4	3	8
12	1	12	-2
13	3	3	10
14	8	4	2
15	13	-3	3

# 2 compounds drawn at random from the list so far, as already listed:
No.	SMILES	Bead autofluor	BJeLR lethal	Sa RN4220 lethal	PrP 5UTR inh
2	CCc1ccc2c(c1)c1nnc(NN)nc1n2C	2676	-8	·	-3
8	O=C(Nc1cccnc1Cl)c1cc(-c2ccc(O)cc2)on1	5393	-5	-0.5	-50

No.	Mtb hypoxia rep	Mtb hypoxia rep growth	ugtP null kill
2	·	·	·
8	2	10	-2

# Next part:
No.	SMILES	Bead autofluor	BJeLR lethal	Sa RN4220 lethal	PrP 5UTR inh
16	Cc1cccc(NC(=O)NNC(=O)c2cc(-c3ccccc3Cl)nc3ccccc23)c1	2802	3	-0.8	-14
17	NC1=NC(=O)/C(=C/c2cccc(-c3ccc(S(N)(=O)=O)cc3)c2)S1	4072	-4	·	-8
18	Cc1nnc(SCCn2c(Br)nc3c2c(=O)[nH]c(=O)n3C)s1	2892	-11	30	-26
19	CC(=O)N1CCN(c2nc3ccc([N+](=O)[O-])cc3s2)CC1	4336	5	3.2	0
20	CCOc1ccc2nc(N=Nc3c(O)[nH]c(=O)[nH]c3=O)sc2c1	4633	0	6.1	-15
21	O=C(CC1C(=O)NCCN1C/C=C/c1ccccc1)NCCc1ccncc1 (centres undefined)	4591	14	4.3	-11
22	CC(=O)CCn1c(=O)n(CCC(C)=O)c(=O)n(CCC(C)=O)c1=O	4570	·	1.4	-10
23	COc1cc(C(=O)OCC(=O)NC2CC2)ccc1OCCC(C)C	2937	·	2.5	-14
24	CCNC(=O)CCn1nc(-c2ccc(Cl)cc2)c2ccccc2c1=O	4112	1	2.2	-28
25	COc1ccc(C=NNC(=O)c2cc(-c3cccn3C)n[nH]2)cc1OC	·	·	11	·
26	C=C1C(C(=O)Nc2ccc(OCC)cc2)C1C(=O)Nc1ccc(OCC)cc1 (centres undefined)	2704	6	1.4	-8
27	COC(=O)c1c(N)n(-c2ccc(NC(C)=O)cc2)c2nc3ccccc3nc12	4957	1	-6.2	-18
28	CC12COC3(C(=O)Nc4ccc([N+](=O)[O-])cc4)CC1CCC32C (centres undefined)	2224	7	-4.0	-30
29	O=C(Nc1ccc(NC(=O)c2ccc(Cl)cc2Cl)cc1)c1cccs1	3145	-8	2.4	-17
30	O=C(NCc1ccc2c(c1)OCO2)C1CC(c2ccc(Cl)cc2)=NO1 (centres undefined)	2944	2	-1.7	-33

No.	Mtb hypoxia rep	Mtb hypoxia rep growth	ugtP null kill
16	·	·	1
17	·	·	·
18	-6	-4	23
19	3	-4	8
20	20	4	-1
21	3	12	6
22	·	·	0
23	1	-3	2
24	10	5	-2
25	23	27	27
26	0	2	10
27	·	·	11
28	2	1	7
29	-1	-1	2
30	·	·	8

# Next records
No.	SMILES	Bead autofluor	BJeLR lethal	Sa RN4220 lethal	PrP 5UTR inh
31	COc1cc2c(cc1NC(=O)CCC(=O)O)oc1ccccc12	4232	4	3.7	-28
32	Cc1ccc(C(=O)N(CC(=O)NC2CCCCC2)c2ccccc2F)s1	4254	-14	2.0	-16
33	Cc1ccc2[nH]c3c(c2c1)CCC3=O	5956	-1	11	8
34	COc1cc2c(cc1NC(=O)Cc1ccc(C)cc1)oc1ccccc12	2607	-8	0.0	-44
35	COc1ccc(OC)c(NC(=O)CSc2nc3ccccc3c(=O)n2CC2CCCO2)c1 (centres undefined)	5542	-2	1.8	6
36	CCC(C)(C)n1nnnc1C(c1cccnc1)N1CCN(c2cccc(C(F)(F)F)c2)CC1 (centres undefined)	3930	-3	2.5	13
37	O=C(CNC(=S)NC(=O)c1ccco1)c1ccccc1	4562	-3	1.9	-26
38	O=C(c1ccc(S(=O)(=O)N2CCCCCC2)cc1)N(c1ccccn1)C1CCCCC1	2481	-9	3.3	-13
39	COc1ccc(C2(C)NC(=O)N(CC(=O)Nc3ccc4c(c3)OCO4)C2=O)cc1OC (centres undefined)	2516	-16	5.1	-10
40	COc1ccc(OC)c(C2C(C#N)=C(N)Oc3cc(C)[nH]c(=O)c32)c1 (centres undefined)	2526	-2	-6.8	-17
41	COc1cc(C=c2sc3n(c2=O)C(c2ccccc2)C(c2ccccc2)=NN=3)ccc1O (centres undefined)	·	·	-4.2	·
42	COc1ccc2c(-c3cccnc3)cc(=O)[nH]c2c1	3920	7	0.0	3
43	CCCCN(CCCC)CCNC(=O)CN1C(=O)COc2ccc(S(=O)(=O)N3CCC(C)CC3)cc21	5106	-6	5.0	-10
44	CCC(C)[C@H](NC(=O)NCc1ccco1)C(=O)O (some centres undefined)	10358	2	2.2	-3
45	CCOc1ccccc1NC(=O)/C(C#N)=C/c1c(C)nn(-c2ccc(F)cc2)c1Cl	1935	-3	12	-18

No.	Mtb hypoxia rep	Mtb hypoxia rep growth	ugtP null kill
31	13	8	1
32	14	11	5
33	4	-4	1
34	8	9	9
35	5	13	4
36	-6	4	-5
37	·	·	-2
38	-8	6	-1
39	4	5	2
40	12	-5	-1
41	-3	5	-3
42	10	11	-9
43	13	11	9
44	2	7	-6
45	4	2	6

# Later entries
No.	SMILES	Bead autofluor	BJeLR lethal	Sa RN4220 lethal	PrP 5UTR inh
46	O=C(COC(=O)c1cc(Br)ccc1Cl)NC1CCCC1	3674	-26	5.9	-6
47	CC(C)(C)c1ccc(C=NNC(=O)C2CCCC2)cc1	·	·	1.1	·
48	CCOC(=O)C1CCCN(C(=S)Nc2cccc(Cl)c2)C1 (centres undefined)	2512	-9	0.5	-22
49	CCOc1cc(C2Nc3ccccc3NC3=C2C(=O)CC(C)(C)C3)ccc1O (centres undefined)	3436	-5	1.9	-16
50	CN(CC(=O)NCCc1ccc(S(N)(=O)=O)cc1)CC(=O)Nc1ccc(Cl)c(C(F)(F)F)c1	2915	·	2.9	-17
51	O=C(CCC(=O)N1CCOc2ccccc21)Nc1ccccc1Br	6035	6	3.7	-5
52	CCN(c1ccccc1)S(=O)(=O)c1cc(C(=O)O)ccc1C	5184	7	10	-2
53	Cc1ccsc1C(=O)NNC(=O)COc1ccc(Br)cc1	6217	·	-0.2	-25
54	Cc1ccc(Nc2nc(N)nc(COC(=O)c3ccc(Br)o3)n2)cc1	·	·	5.3	-31
55	CC1CCCC(C)N1S(=O)(=O)c1ccc(NC(=O)CCN2C(=O)C3CC=CCC3C2=O)cc1 (centres undefined)	8430	·	3.7	-14
56	O=C(CSc1ncnc2c1sc1ccccc12)Nc1ccc(Br)cc1	2211	2	11	-8
57	Cc1ncoc1C(=O)NC1CC(C)(C)Cc2c1cnn2-c1ccccc1 (centres undefined)	4516	-4	2.7	-10
58	CC(=O)Cc1nsc(NC(=O)c2ccc(-c3ccc(Cl)c(Cl)c3)o2)n1	3436	-8	11	-16
59	O=C(Nc1ccc(N2CCCCCC2)cc1)c1cccc(S(=O)(=O)N2CCOCC2)c1	7950	·	-8.3	-21
60	O=C(CSc1ccc(-c2cccs2)nn1)N1CCCCC1	9300	15	5.7	-10

No.	Mtb hypoxia rep	Mtb hypoxia rep growth	ugtP null kill
46	-2	4	4
47	9	10	12
48	10	1	2
49	7	-4	5
50	13	9	6
51	3	4	0
52	·	·	3
53	6	3	1
54	-1	-11	3
55	-2	-4	1
56	5	4	-10
57	7	19	4
58	10	6	3
59	-8	1	-13
60	-1	-1	-3

# The list continues:
No.	SMILES	Bead autofluor	BJeLR lethal	Sa RN4220 lethal	PrP 5UTR inh
61	S=C(NCc1cccs1)Nc1cccc(Cl)c1Cl	7946	-21	1.2	-13
62	Cc1noc(C)c1NC(=O)N(C)C[C@H]1Oc2ccc(NS(=O)(=O)c3ccc(F)cc3)cc2C(=O)N([C@H](C)CO)C[C@@H]1C	3574	·	-15	-16
63	C/C=C/c1ccc(OCCCCOc2ccc(OC)cc2)c(OC)c1	2479	-1	3.9	-25
64	CC(=O)n1nc(-c2cccnc2)nc1NCc1cccs1	4192	1	1.7	-119
65	Cn1c(=O)[nH]c(=O)c2c1nc(NCc1ccccc1)n2CCCc1ccccc1	4963	-12	-3.6	-9

No.	Mtb hypoxia rep	Mtb hypoxia rep growth	ugtP null kill
61	4	8	-20
62	6	14	-5
63	10	7	36
64	5	8	8
65	·	·	-1

# Of the compounds above, 6 have bromine:
No.	SMILES	Bead autofluor	BJeLR lethal	Sa RN4220 lethal	PrP 5UTR inh
18	Cc1nnc(SCCn2c(Br)nc3c2c(=O)[nH]c(=O)n3C)s1	2892	-11	30	-26
46	O=C(COC(=O)c1cc(Br)ccc1Cl)NC1CCCC1	3674	-26	5.9	-6
51	O=C(CCC(=O)N1CCOc2ccccc21)Nc1ccccc1Br	6035	6	3.7	-5
53	Cc1ccsc1C(=O)NNC(=O)COc1ccc(Br)cc1	6217	·	-0.2	-25
54	Cc1ccc(Nc2nc(N)nc(COC(=O)c3ccc(Br)o3)n2)cc1	·	·	5.3	-31
56	O=C(CSc1ncnc2c1sc1ccccc12)Nc1ccc(Br)cc1	2211	2	11	-8

No.	Mtb hypoxia rep	Mtb hypoxia rep growth	ugtP null kill
18	-6	-4	23
46	-2	4	4
51	3	4	0
53	6	3	1
54	-1	-11	3
56	5	4	-10
